UCH37 DUB inh: inhibitors of human deubiquitinating enzyme UCH37; purified proteasome/UCH37, Ub-AMC cleavage fluorescence; inhibition, % (test concentration not listed); actives 0.33% (n = 330,000); AID 588478;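 active means mean of two replicates above 20%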;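 further: 0% = compound-free wells with enzyme and 100% = wells lacking proteasome; stock transfer was 100 nL into about 20 µL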
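Material: human UCH37 enzyme supplied as purified proteasome complex. Measure: % inhibition of Ub-AMC cleavage fluorescence. Medium: pH 7.4 Tris-HCl (50 mM) with ovalbumin, ATP-MgCl2, DTT. Times: 30 min preincubation with enzyme, 25 min cleavage at room temperature. Detection: AMC fluorescence intensity at 355/460 nm.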
A1 inh: inhibitors of the anti-apoptotic protein A1, read as caspase activation. MEF A1-2A-BIM cells, Caspase-Glo 3/7 luminescence, 3 h; percent of clofoctol response, vehicle zero. caspase activation, % (concentration not given with the values). actives 0.066% (n = 330,000). AID 2462;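 active means over half of replicate activation scores above 10%, or exactly half above 10 with the replicate mean above 10; inconclusive means replicate mean below 10 yet half the replicates above 10; inactive means over half of replicates below 10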;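 further: wells of about 30 µL received 50 nL stock; many hits fall short of the cut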
LANA-H2B inh: blocks KSHV LANA binding to histone H2A/H2B | Q9QR71 | cell-free LANA-H2A/H2B peptide, fluorescence polarization | inhibition, % (concentration not given with the values) | actives 0.6% (n = 320,000) | AID 2629; in the data active means inhibition mostly above about 10%, no sharp cut-off; inactive means mostly below about 6.7%;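 further: stock transfer was 7.5 nL into about 10 µL; 0% = median of vehicle wells and 100% = median of positive control wells; one replicate is shown; the record names a cut of 25% in any replicate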
Target sequence (Q9QR71 whole entry, looked up): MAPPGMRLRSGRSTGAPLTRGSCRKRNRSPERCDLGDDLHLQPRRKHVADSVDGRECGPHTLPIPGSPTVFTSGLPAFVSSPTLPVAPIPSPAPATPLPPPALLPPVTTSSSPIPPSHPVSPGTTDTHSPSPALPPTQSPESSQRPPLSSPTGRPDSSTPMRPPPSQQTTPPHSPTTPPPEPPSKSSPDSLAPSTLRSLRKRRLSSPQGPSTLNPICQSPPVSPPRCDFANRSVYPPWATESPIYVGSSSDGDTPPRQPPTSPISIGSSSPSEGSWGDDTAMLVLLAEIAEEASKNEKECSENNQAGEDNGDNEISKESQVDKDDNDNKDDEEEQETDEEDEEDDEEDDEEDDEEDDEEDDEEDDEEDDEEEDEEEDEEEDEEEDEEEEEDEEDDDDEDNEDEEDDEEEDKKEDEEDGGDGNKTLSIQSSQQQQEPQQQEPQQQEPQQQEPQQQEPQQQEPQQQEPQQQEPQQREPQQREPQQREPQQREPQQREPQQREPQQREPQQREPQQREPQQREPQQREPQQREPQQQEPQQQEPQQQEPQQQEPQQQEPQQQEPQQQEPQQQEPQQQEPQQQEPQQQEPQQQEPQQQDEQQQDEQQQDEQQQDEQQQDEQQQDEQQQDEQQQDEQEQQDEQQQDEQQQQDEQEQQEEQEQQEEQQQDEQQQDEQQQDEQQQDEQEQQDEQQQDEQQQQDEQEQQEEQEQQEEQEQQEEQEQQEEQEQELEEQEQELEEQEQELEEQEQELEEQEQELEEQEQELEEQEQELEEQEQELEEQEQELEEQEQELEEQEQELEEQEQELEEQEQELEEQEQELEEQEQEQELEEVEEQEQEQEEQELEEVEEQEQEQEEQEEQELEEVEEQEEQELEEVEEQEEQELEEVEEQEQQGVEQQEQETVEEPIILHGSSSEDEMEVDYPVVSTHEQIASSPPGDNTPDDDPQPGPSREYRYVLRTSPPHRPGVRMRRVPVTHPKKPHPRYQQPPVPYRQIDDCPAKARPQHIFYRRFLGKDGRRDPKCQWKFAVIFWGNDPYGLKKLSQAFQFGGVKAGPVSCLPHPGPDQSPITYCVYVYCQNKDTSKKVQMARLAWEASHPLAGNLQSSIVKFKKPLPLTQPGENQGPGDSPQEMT
T cruzi repl: T. cruzi replication inhibition; T. cruzi beta-gal in NIH3T3, luminescence, 90 h; inhibition, % (concentration not given with the values); actives 1.4% (n = 300,000); AID 1885;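 active means mean inhibition across valid replicates above about 55%, limit read from the data; inconclusive means mean below that limit but half or more replicates reach it; inactive means mean below it, under half of replicates reach it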;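 further: signal also drops with host cell toxicity which is not excluded here; 0% = plate median of DMSO wells and 100% = zero luminescence signal; higher percent means less beta-gal luminescence so fewer parasites; stock transfer was 50 nL into about 50 µL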
B2AR ag: human beta-2 adrenergic receptor agonism by FAP | P07550 | Am2.2-beta2AR cells, FAP receptor internalization, flow cytometry; reference of the scale not given here | response, % (concentration not given with the values) | actives 0.43% (n = 340,000);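 active means response above a set limit, near 3 SD of response in nonfluorescent compounds, cut at about 42% in these data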;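 further: stock transfer was 100 nL into about 11 µL; a reference agonist was the positive control; negative values mostly stem from fluorescent compounds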
Calb FLC: C. albicans growth modulation with fluconazole | C. albicans CaCi-2 (fluconazole-resistant clinical isolate) + fluconazole, Alamar Blue growth, 48 h | growth inhibition, % (test concentration not listed) | actives 0.57% (n = 300,000);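 active means most replicates above 75%; inconclusive means exactly half above 75%; inactive means most below 75%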;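 further: all wells also contain fluconazole at 8 µg/ml as a sub-toxic cotreatment; 0% = median of DMSO wells and 100% = median of geldanamycin control wells; wells of about 8 µL received 7.5 nL stock; the first replicate is given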
RanGTP-Impb inh: disruptors of Ran-importin-beta complex formation – biochemical, FRET, CFP-Ran, YFP-importin-beta, homogeneous, primary screen. cell-free CFP-Ran/YFP-importin-beta FRET ratio. inhibition, % (no concentration beside the values). actives 1.1% (n = 300,000);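 active means most replicates above 15%; inconclusive means exactly half above 15%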;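 further: 0% = DMSO wells and 100% = Ran loaded with GDP instead of GTP; wells of about 40 µL received 100 nL stock; the first replicate is given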
Beta apoptosis: blocks beta cell apoptosis; INS-1E cytokine-induced death, ATP luminescence, 48 h; percent of positive-control rescue, neutral wells zero; protection from apoptosis, % (test concentration not listed); actives 0.8% (n = 300,000);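 active means all replicates at 75% or more, or half of them and the mean; inconclusive means half reach 75% but not the mean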;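 further: 0% = cytokine-treated negative control wells and 100% = positive control rescue; higher means more ATP so stronger rescue from cytokine killing; wells of about 40 µL received 100 nL stock; the first replicate is given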
The depositor's hits bear a star; i = inactive; ? = inconclusive; · = no result given. Rows are unselected, and some 4.3% of all compounds hit somewhere here.

SMILES	UCH37 DUB inh	A1 inh	LANA-H2B inh	T cruzi repl	B2AR ag	Calb FLC	RanGTP-Impb inh	Beta apoptosis
COc1ccc(S(=O)(=O)N2CCN(C(=O)Cc3cccs3)CC2)cc1	4.8	-0.1	-7.7	1	0	10	-1.0	-6
O=C(OCC(=O)N1CCc2ccccc2C1)c1cccnc1Cl	-1.3	-0.9	-0.6	-2	-1	3	0.2	-1
O=c1oc2ccccc2c2c1C(c1ccc(Cl)cc1)Nc1ccc3ccccc3c1-2 (configuration not stated)	-34	0.7	-3.4	35	-4	-2	7.0	0
O=C(/C=C/Nc1ccc(F)cc1)c1ccc(Oc2ncccn2)cc1	-1.6	-2.0	-2.7	1	4	-5	0.2	1
Cc1ccc(NCC(=O)c2ccc(C)cc2)cc1	2.6	-1.6	0.1	56*	2	-30	1.6	·
COc1ccc(CN2CCNC(=O)C2CC(=O)O)c(OC)c1 (configuration not stated)	7.2	0.5	0.5	-6	6	2	2.8	4
CCOc1ccc(C2c3[nH]c4ccccc4c3CCN2CCCn2cccn2)cc1 (configuration not stated)	-23	0.5	-1.4	20	6	26	-1.4	-9
CC(C)CN(C(=O)COC(=O)c1ccccc1Sc1ccccc1C#N)C1CCS(=O)(=O)C1 (configuration not stated)	1.3	0.2	1.5	-1	6	-7	-2.2	-4
Cc1nc2ccc(S(=O)(=O)Nc3cc(-c4nc5cccnc5s4)ccc3C)cc2s1	1.2	-0.7	3.0	-16	-16	-2	-2.1	2
COc1ccc(/C=N/Nc2cc(C)nc(N3CCOCC3)n2)cc1	·	-0.7	-5.0	-5	11	-5	3.3	-10
COc1ccc(-c2nnc(SCC(=O)N3CCN(c4ccccc4)CC3)o2)cc1OC	2.6	1.2	-7.2	-12	4	16	-1.0	-4
CCOC(=O)C1CCN(C(=O)C2CCN(S(=O)(=O)CC)CC2)CC1	1.2	1.4	-4.3	-15	20	-5	-3.9	-4
COc1ccc(-n2cnnc2SCC(=O)Nc2nc(C)c(Cl)cc2Cl)cc1	1.1	-0.7	2.0	-10	-1	2	-1.2	0
CC(=O)Nc1cccc(Cl)c1C(=O)O	-0.9	0.9	-0.5	-14	-2	1	9.7	2
COc1cc(NS(=O)(=O)c2ccc(Nc3nc(-c4cccc([N+](=O)[O-])c4)cs3)cc2)nc(OC)n1	5.8	0.2	-3.4	22	5	1	0.1	-1
CC(=O)CSc1nc(N(C)C)nc(N(C)C)n1	1.7	0.2	-3.3	19	-1	-14	3.7	-3
O=C(Nc1ccc2nc(-c3cccs3)c(-c3cccs3)nc2c1)NC1CC1	-109	0.5	-3.2	37	26	35	121*	-1
Cc1ccccc1CNC(=O)Cc1cccs1	1.6	-0.1	0.3	-10	3	?	-4.0	3
CCN(CC)C(=O)CSc1nc(-c2cccs2)cc(-c2cccs2)c1C#N	-75	0.1	0.0	48	3	-1	8.1	25
CCc1nnc(NC(=O)CSc2nnc(CSc3nc(C)cc(C)n3)o2)s1	-2.4	-0.3	-0.8	-8	-4	-4	1.6	-2

Reprinted at random: 3 compounds from above, in no set order.
SMILES	UCH37 DUB inh	A1 inh	LANA-H2B inh	T cruzi repl	B2AR ag	Calb FLC	RanGTP-Impb inh	Beta apoptosis
CCN(CC)C(=O)CSc1nc(-c2cccs2)cc(-c2cccs2)c1C#N	-75	0.1	0.0	48	3	-1	8.1	25
O=C(Nc1ccc2nc(-c3cccs3)c(-c3cccs3)nc2c1)NC1CC1	-109	0.5	-3.2	37	26	35	121*	-1
CCc1nnc(NC(=O)CSc2nnc(CSc3nc(C)cc(C)n3)o2)s1	-2.4	-0.3	-0.8	-8	-4	-4	1.6	-2

(list continues)
SMILES	UCH37 DUB inh	A1 inh	LANA-H2B inh	T cruzi repl	B2AR ag	Calb FLC	RanGTP-Impb inh	Beta apoptosis
O=C(NCc1ccc2c(c1)OCO2)Nc1cccc2ccccc12	3.1	1.3	-7.0	-8	0	-9	1.8	-7
Cn1c(SCC(=O)N2CCOCC2)nnc1-c1ccncc1	1.5	0.2	-13	-14	11	-16	2.6	0
CC(C)COC(=O)n1c(=O)oc2cc(S(=O)(=O)N3CCCCC3)ccc21	-1.3	2.1	1.3	-18	0	1	6.1	2
COc1ccc(C(=O)C2CCCN(C(=O)c3ccc(C(C)=O)s3)C2)c(C)c1 (configuration not stated)	4.1	·	·	4	-13	-4	?	·
CON(C)C(=O)CC(CNC(=O)OC(C)(C)C)c1ccc(Cl)cc1 (configuration not stated)	2.7	1.6	-2.1	·	-2	·	·	-2
O=C(CN1CCN(c2ccccn2)CC1)NCCc1ccccc1	-0.4	0.0	-1.8	-5	4	1	-3.0	-1
CCN(C[C@H]1N[C@@](C)(C(=O)OC)[C@H]2C(=O)N(Cc3ccccc3)C(=O)[C@@H]12)C(=O)Nc1ccc(Cl)cc1	0.4	-0.3	6.2	·	0	·	·	-3
O=C(Nc1ccc(N2CCOCC2)cc1)C1(c2ccc(Cl)cc2)CCC1	1.4	-0.2	-3.9	-3	-4	-7	12	-1
COc1ccc(C(=O)N2CCC(n3nccc3NC(=O)C3CC3)CC2)c(OC)c1OC	2.6	-1.2	2.0	-23	1	3	1.3	-1
Cc1cc2oc3c(c(=O)c2cc1C)C(c1ccc(F)cc1)N(CCCN1CCOCC1)C3=O (configuration not stated)	1.6	-0.5	5.3	7	-7	-5	1.1	-5
CCCOC(=O)C1=C(C)NC2=C(C(=O)CC(C)(C)C2)C1c1ccc(N(C)C)cc1 (configuration not stated)	11	0.0	-1.0	26	-6	-8	4.6	4
Cc1cccc(N2CCN(C(=O)C3CCN(S(=O)(=O)c4cccc5nsnc45)CC3)CC2C)c1 (configuration not stated)	3.9	-0.3	3.0	4	8	-7	3.8	0
Cc1ccccc1OCCc1c(C)[nH]c(=S)[nH]c1=O	0.1	-0.5	-4.5	-63	18	-8	-2.4	6
O=C(Cc1cccs1)Nc1ccccc1NC(=O)Cc1cccs1	-0.6	-0.4	0.7	-9	4	0	2.3	3
Cc1ccc(C(C)C)c(OCCN2C(=O)NC(C)(C)C2=O)c1	2.4	0.7	-1.3	-8	-2	-9	-1.6	-9
CCOc1ccc(NC(=O)CC2C(=O)N(c3ccccc3)C(=O)N2CCc2cccs2)cc1 (configuration not stated)	5.1	0.4	-3.5	-13	9	3	4.7	12
CCOC(=O)c1c(C)[nH]c(C)c1C(=O)CSc1nc2ccccc2n1CCC#N	3.4	0.3	-1.9	1	-2	?	1.1	-5
COc1ccc(NC(=O)C2CCN(S(=O)(=O)c3ccc(Br)s3)CC2)cc1OC	0.7	0.4	2.4	0	0	-13	-2.2	2
CC1CCC2(CC1)NC(=O)N(NC(=O)c1cc3ccccc3o1)C2=O (configuration not stated)	2.3	-0.4	-4.4	·	-2	·	·	-9
COc1ccc(C(=O)CSc2nnc(COc3ccc(C#N)cc3)n2-c2ccccc2)cc1	0.9	-0.2	-1.1	9	6	-8	2.4	3
O=C(COC(=O)c1ccc2c(c1Cl)C(=O)c1ccccc1C2=O)NC1CC1	1.6	-1.3	-0.7	-29	-3	9	7.0	-1
COc1ccc(-c2cc3c(=O)n(CC(=O)Nc4ccc(C(C)=O)cc4)ncn3n2)cc1	3.2	-0.6	-0.4	30	-1	-3	?	4
CC(C)[C@H]1CN=C2N(CCNC(=O)CCC3CCCCC3)[C@H](Cc3ccc(O)cc3)CN21	3.6	?	-1.8	-27	-2	-10	-0.7	3
O=C(Nc1cccc(C(F)(F)F)c1)c1ccc(N2CCNCC2)c([N+](=O)[O-])c1	2.8	-0.3	13	30	21	10	2.8	2
COCCCNC(=O)c1ccccc1NS(C)(=O)=O	-26	-2.0	0.6	-10	1	24	2.2	0
CC[n+]1c(S(=O)(=O)[O-])ccc2ccc(C)cc21	0.0	-0.3	-0.7	1	-5	15	0.5	-2
Cc1ccccc1OCC(=O)Nc1ccc2oc(=O)ccc2c1	-10	1.1	3.0	-6	-1	8	-2.7	0
O=C(CSc1cccc[n+]1[O-])c1ccccc1Br	2.6	-0.5	4.1	53	3	10	1.9	0
CC(=O)Nc1ccc(NC(=O)CSc2ccc(-c3ccc(-n4ccnc4)cc3)nn2)cc1	3.7	1.4	-4.5	0	-3	-9	1.7	·
O=C(NCC(c1ccco1)N1CCCCC1)c1cccs1 (configuration not stated)	0.5	-1.1	3.5	·	-1	·	·	2
NNC(=O)c1cc(Cl)ccc1Cl	2.7	1.3	0.3	-5	5	-3	-0.9	-16
COc1ccc(CNC(=O)C/C(C)=N/NC(=O)c2cnccn2)cc1	·	0.2	2.7	0	-2	8	1.9	-3
Cc1cc(=O)oc2c(CN3CCCCC3)c(O)c(Cl)cc12	i	0.6	0.8	-13	-5	5	8.8	3
O=C(COC(=O)CCC(=O)c1ccc(Cl)cc1)NCCc1ccccc1	3.6	1.2	1.0	5	2	13	-0.1	-2
Cc1cccc(N2CCN(C(=O)c3cc4c(=O)n(C)c5ccccc5c4n3C)CC2)c1C	1.7	-1.7	2.4	45	9	2	8.6	2
CSc1nc(Oc2ccc3ccccc3c2)c2sccc2n1	-1.4	0.2	-0.7	16	4	5	-4.3	8
O=C(NCc1ccc(N2CCCC2=O)cc1)c1cnccn1	0.0	0.5	4.7	-5	-3	-3	4.5	-6
c1ccc(Cn2c(NCc3ccccn3)nc3ccccc32)cc1	2.0	-0.2	8.5	-16	0	-2	-2.3	-3
CC(=O)c1c(C(C)=O)c(C)n(-c2ccc(C(=O)O)cc2)c1C	-4.3	0.2	-0.7	-6	3	-2	1.9	1
CC(=O)c1ccc(S(=O)(=O)Nc2ccc3c(c2)OCO3)cc1	2.8	-0.8	1.1	·	-7	·	·	1
CCC(=O)Nc1ccc2oc(-c3ccccc3Br)nc2c1	-3.7	0.1	-1.4	-3	-22	3	-0.9	0
CC1(NC(=O)Cc2csc(-c3ccc(Cl)cc3)n2)CCS(=O)(=O)C1 (configuration not stated)	0.4	0.4	1.4	·	-7	·	·	-2
CC(=O)OCC1=C(C(=O)O)N2C(=O)C(NC(=O)c3ccc(COc4c(C)cccc4Cl)o3)C2SC1 (configuration not stated)	5.0	0.1	1.4	-4	1	3	-0.2	-2
COc1ccc(-c2c3c(=O)n(C)c(=O)n(C)c3cn2Cc2ccccn2)cc1	-3.2	0.6	-1.7	-22	5	-25	?	-5
COc1ccc(Br)c(C(=O)OCc2cc(=O)oc3cc(C)ccc23)c1	-9.3	0.1	3.3	-3	-14	-15	5.4	1
Cc1ccc(OCC(O)CN2C(=O)NC(C)(C)C2=O)cc1 (configuration not stated)	0.1	1.0	-3.5	-8	-3	7	0.4	-4
Cc1cccc(C(=O)OCC(=O)NN2C(=O)NC3(CCCCC3)C2=O)c1	4.9	0.0	9.5	·	-2	·	·	-5
N#CCC(CNc1ncc(C(F)(F)F)cc1Cl)OC(=O)c1ccc(Cl)cc1 (configuration not stated)	2.4	0.7	-2.2	-12	3	15	-0.4	·
CC(=O)Oc1ccc2c(c1)c(C(C)=O)c(C)n2C	3.0	-0.4	1.4	-18	3	17	-1.5	1
CCCCCOc1ccc(/C=C/C(=O)NCCc2nc3ccccc3[nH]2)cc1OC	-148	-0.6	-2.2	39	17	4	-6.0	9

High-throughput results deposited in PubChem BioAssay by several laboratories.
